GIV Gai3 FP = inhibitors of GIV peptide binding to Galpha-i3, primary screen, biochemical, fluorescence polarization, FITC-GIV GBA peptide, rat Galphai3; 90 min; active compounds read low; scaled: aluminum fluoride 0%, vehicle 100%; percent of control (FP), % (no concentration beside the values); 0.42% of 210,000 active; AID 1224905, 2016;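 active means replicate mean at 85% of control or lower, very high polarization wells dropped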;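 further: wells of about 15 µL received 100 nL stock; the first replicate is given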
Target sequence (P08753 whole entry, looked up): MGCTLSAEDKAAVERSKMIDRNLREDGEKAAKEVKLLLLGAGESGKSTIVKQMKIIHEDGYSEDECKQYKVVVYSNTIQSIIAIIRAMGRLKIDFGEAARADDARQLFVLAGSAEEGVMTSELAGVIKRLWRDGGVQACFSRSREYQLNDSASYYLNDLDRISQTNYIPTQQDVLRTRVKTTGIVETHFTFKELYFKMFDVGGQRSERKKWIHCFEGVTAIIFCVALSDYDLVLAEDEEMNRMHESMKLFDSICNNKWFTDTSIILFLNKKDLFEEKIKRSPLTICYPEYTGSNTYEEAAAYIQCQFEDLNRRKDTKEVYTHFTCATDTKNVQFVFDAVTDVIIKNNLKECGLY
HCMV NEC inh = inhibitors of HCMV UL50-UL53 interaction, biochemical, HTRF; HCMV UL50-UL53 nuclear egress complex (human cytomegalovirus); normalized percent inhibition; inhibition, % (test concentration not listed); 0.15% of 190,000 active;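 active means both replicates at 50% or more, plus weaker picks with an unusually low signal ratio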;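 further: stock transfer was 100 nL into about 20 µL; 0% = negative control wells and 100% = wells with untagged competitor protein; inactives centre near -12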
Sa growth inh = S. aureus growth inhibition at 42 and 30 °C, primary screen, LtaS inhibitor project, RN4220, two temperatures; OD600, 20 h, 42 °C; active compounds read low; relative growth, % (no concentration beside the values); 0.53% of 170,000 active;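 active means growth at 42 °C up to 50% and 20 or more points under that at 30 °C, or under 10% at both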;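 further: 300 nL library stock went into each well; scaled to the means of positive and negative controls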
Sa growth inh second temp = second read-out of Sa growth inh, no call of its own (marks repeat the call); relative growth, %; measured here: growth at 30 °C;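 optical density after 20 h as mean of two plates; 100% = untreated growth and lower means inhibition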
* = called active by the depositor; nt = no result given; & = joins results of further samples.

Under each structure: Sa growth inh	HCMV NEC inh	Sa growth inh second temp	GIV Gai3 FP
COc1cccc(-c2cn3c(n2)sc2cc(C(=O)NCCCc4ccccc4)ccc23)c1
 : 109	nt	83	106
CS(=O)(=O)c1ccccc1C(=O)Nc1ccc(N2CCCCC2)cc1
 : 77	-18	88	nt
O=C(CCC1CCCCC1)OCCN1CCCC1=O
 : 93	25	103	nt
S=c1sc2c(N3CCOCC3)ncnc2n1-c1ccccc1
 : 82	0	93	98
CS(=O)(=O)N1Cc2ccccc2CC1C(=O)OCC(=O)Nc1sccc1C#N (stereo not given)
 : 82	-12	81	nt
Nc1nc(Cl)nc2c1ncn2[C@@H]1O[C@H](COP(=O)(O)OP(=O)(O)OP(=O)(O)O)[C@H](O)C1O (stereo not given in full)
 : nt	-40	nt	107
NCC1Cc2ccccc2O1 (stereo not given)
 : 100	-20	83	94
Cn1nc(-c2ccccc2F)c2cc(C(=O)NCCCN3CCN(c4ccc(F)cc4)CC3)sc21
 : 108	nt	76	103
O=C(NCc1ccccc1)c1ccco1
 : 100	-15	86	105
O=c1cc(CNc2ccc(Br)cc2)nc2sccn12
 : 90	3	96	nt
O=C(Nc1ccccc1Cl)c1cc(-c2ccncc2)n[nH]1
 : nt	-2	nt	102
CCOC(=O)C1CCCN(C(=O)c2ccc(NC(=O)c3nsc4ccccc34)cc2)C1 (stereo not given)
 : 84	nt	81	107
Cc1[nH]n(-c2ccccc2)c(=O)c1C=Nc1c(C)[nH]n(-c2ccccc2)c1=O
 : nt	-16	nt	104
O=[N+]([O-])c1cccc(/C=C/c2nc(C=Nc3cc(Cl)ccc3Cl)c(O)o2)c1
 : nt	-20	nt	103
Cc1c(C(=O)Nc2cccc(C(F)(F)F)c2)oc2ccc3c(c12)C(=O)CC(C)(C)O3
 : 95	nt	102	113
CCOc1ccc2nc(NCCCNC(=O)c3cc(OC)c(OC)c(OC)c3)c(C#N)cc2c1
 : 117	-42	102	103
COc1ccc(CN2C(=O)c3cc(C)nn3CC2(C)C(=O)NCc2ccccc2)cc1 (stereo not given)
 : nt	0	nt	97
CCc1ccc(NC(=O)c2cc(S(=O)(=O)N3CCCCCC3)ccc2F)cc1
 : 119	nt	99	108
COc1cccc(C(=O)Nc2ccc(S(=O)(=O)N(Cc3ccccc3)c3ccccc3)cc2)c1
 : 103	-22	80	100
CCn1c2ccccc2c2cc(NC(=O)COC)ccc21
 : 121	-6	102	104
Cn1ccc2c(OCC(=O)Nc3cc(C(F)(F)F)ccc3Cl)cccc2c1=O
 : 99	nt	85	99
CCCNC(=O)c1nnc(Cc2ccc(OC)c(OC)c2)o1
 : 107	nt	93	102
CC(C)(C)OC(=O)NCCN1C(=O)CC2(CCCC2)C1=O
 : 114	nt	88	102
Fc1cccc(Cl)c1CNc1n[nH]c(-c2ccco2)n1
 : 105	-16	89	100
O=S(=O)(c1ccc(Cl)cc1)c1ccc(N=Cc2ccccc2O)cc1Cl
 : 102	-8	82	99
O=C(Nc1ccc(C(=O)NC2CCN(Cc3ccccc3)CC2)cc1)C1=CSCCO1
 : nt	-30	nt	104
Cc1ccc(-c2n[nH]c(=O)c3c2CCCC3)cc1S(=O)(=O)N1CCCCC1
 : nt	-5	nt	99
CC(C)Cn1c(=O)c2ccc(C(=O)NC(C)C)cc2n2c(=O)n(CC(=O)NC(C)C)nc12
 : nt	-37	nt	105
CC1=Nc2ccc(Cl)cc2C(c2ccccc2)N1CC(=O)NN (stereo not given)
 : 97	18	99	100
COc1cccc(C(=O)NN2C(=S)N(c3ccccc3)C(=O)C2CC(N)=O)c1 (stereo not given)
 : 84	-7	75	nt
CCC(C(=O)N1CCCCC1)n1ncn2c(cc3occc32)c1=O (stereo not given)
 : 94	nt	92	105
O=C(NCc1ccc(Cl)cc1)c1ccc(CNS(=O)(=O)c2ccc(F)cc2)cc1
 : 127	nt	92	102
CC(C)CCNC(=O)C1CCCN(S(C)(=O)=O)C1 (stereo not given)
 : 125	nt	89	106
COc1ccc(NC(=O)c2cccnc2Nc2ccc(OC)cc2)cc1
 : 80	-19	66	102
COC(=O)C1=C(C)N(Cc2cccnc2)C(=O)C1
 : 109	-20	97	105
CN1CCN(C(=O)c2ccc3c(c2)OCCO3)CC1
 : nt	-1	nt	108
COc1cccc2c1cc1c(=O)n(CC(=O)NC3CCCCC3)nc(C)n12
 : 140	-33	95	102
Cc1noc(C)c1CSc1ccccc1C(=O)N1CCN(c2ccccc2)CC1
 : 102	1	86	nt
COc1ccc2c3c1OC1C(O)C=CC(C=C2)C31CCN(C)C (stereo not given)
 : 83	-4	88	nt
C/C(=N\NC(=O)C1CCCCC1)c1cccs1
 : 105	-32	112	100

Arranged by heavy-atom count (rising): 14 of the compounds above.
Under each structure: Sa growth inh	HCMV NEC inh	Sa growth inh second temp	GIV Gai3 FP
C/C(=N\NC(=O)C1CCCCC1)c1cccs1
 : 105	-32	112	100
COC(=O)C1=C(C)N(Cc2cccnc2)C(=O)C1
 : 109	-20	97	105
CN1CCN(C(=O)c2ccc3c(c2)OCCO3)CC1
 : nt	-1	nt	108
Fc1cccc(Cl)c1CNc1n[nH]c(-c2ccco2)n1
 : 105	-16	89	100
CCn1c2ccccc2c2cc(NC(=O)COC)ccc21
 : 121	-6	102	104
CCCNC(=O)c1nnc(Cc2ccc(OC)c(OC)c2)o1
 : 107	nt	93	102
COc1ccc2c3c1OC1C(O)C=CC(C=C2)C31CCN(C)C (stereo not given)
 : 83	-4	88	nt
CCC(C(=O)N1CCCCC1)n1ncn2c(cc3occc32)c1=O (stereo not given)
 : 94	nt	92	105
O=S(=O)(c1ccc(Cl)cc1)c1ccc(N=Cc2ccccc2O)cc1Cl
 : 102	-8	82	99
COc1cccc2c1cc1c(=O)n(CC(=O)NC3CCCCC3)nc(C)n12
 : 140	-33	95	102
Cn1ccc2c(OCC(=O)Nc3cc(C(F)(F)F)ccc3Cl)cccc2c1=O
 : 99	nt	85	99
Cc1noc(C)c1CSc1ccccc1C(=O)N1CCN(c2ccccc2)CC1
 : 102	1	86	nt
O=C(Nc1ccc(C(=O)NC2CCN(Cc3ccccc3)CC2)cc1)C1=CSCCO1
 : nt	-30	nt	104
CC(C)Cn1c(=O)c2ccc(C(=O)NC(C)C)cc2n2c(=O)n(CC(=O)NC(C)C)nc12
 : nt	-37	nt	105

Later entries
Under each structure: Sa growth inh	HCMV NEC inh	Sa growth inh second temp	GIV Gai3 FP
O=c1c2cc3c(=O)n(-c4ccc(Cl)cc4)c(=O)c3cc2c(=O)n1-c1ccc(Cl)cc1
 : 103	-10	83	nt
COc1ccc(OC)c(NC(=O)n2ncc3cc(Cl)ccc32)c1
 : nt	-1	nt	105
NC(=O)C1CCCN(C(=O)CNC(=O)C23CC4CC(CC(C4)C2)C3)C1 (stereo not given)
 : 80	-36	88	nt
CCN1C(=O)/C(=C/c2ccc(Cl)cc2)NC1=S
 : 89	nt	65	99
C/C(=N\NC1=NCCN1)c1ccccc1
 : 108	12	101	106
COCCN(CCC(=O)N1CCNCC1)C(=O)c1cccc(Br)c1
 : nt	-22	nt	100
CC1=Nc2ccccc2N(CC(O)Cn2c3ccccc3c3ccccc32)C(=O)C1 (stereo not given)
 : 108	-8	79	nt
CN(Cc1ccccc1)c1sc(S(C)(=O)=O)nc1S(=O)(=O)c1ccc(Cl)cc1
 : 113	nt	92	102
CCCc1c(C(=O)N2CCN(c3ccccc3OC)CC2)cnn1-c1ccccc1
 : 104	-9	97	98
Cc1nn(-c2ccccc2)c2sc(C(=O)NC(=S)NC3CCSC3=O)cc12 (stereo not given)
 : 110	nt	94	85*
CCOc1ccccc1N1CC(c2nc3ccccc3n2CCCCOc2ccccc2)CC1=O (stereo not given)
 : 109	-12	82	105
COc1cc(Nc2nc3nonc3nc2N2CCCCC2C)c(OC)cc1Cl (stereo not given)
 : nt	5	nt	101
Cc1ccc2c(c1)Nc1nc3nonc3nc1N2
 : 94	-12	93	104
CCN1CCC(N(Cc2cccc(OC)c2)C(=O)Nc2cccc(C)c2C)CC1
 : 79	nt	89	102
CC1CC(C)(C)CC2(C1)NC(=O)NC2=O (stereo not given)
 : 99	19	93	nt
CCN(CC)S(=O)(=O)c1ccc2c(c1)N(CC(=O)Nc1cccc(C)c1C)C(=O)C1CCCN21 (stereo not given)
 : 92	4	84	125&115
O=c1[nH]c(CNCC2CCCO2)nc2ccccc12 (stereo not given)
 : 102	6	95	nt
O=C(Nc1ccccc1)N1CCCN(Cc2ccc(F)cc2)CC1
 : 95	-1	94	113
CCOc1nccc(C(F)(F)F)c1C(=O)N(CC)c1c(C)cccc1C
 : 92	-15	97	100
CCCCNC(=O)Cn1c(=O)n(CCCCC(=O)NC2CCCC2)c(=O)c2ccccc21
 : nt	-3	nt	106
COC(=O)c1c(C)sc(-c2c(-c3ccc(OC)c(OC)c3)[nH]c3c2c(=O)n(C)c(=O)n3C)c1O
 : nt	-18	nt	173
COC(=O)c1cccc(NC(=O)NC(C)C)c1
 : 109	-24	92	110
CCC(=O)N1CCc2cc(CNC(=O)c3ccc(C#N)cc3)ccc21
 : 125	nt	86	106
Cc1csc2ncc(C(=O)N3CCCCCC3)c(=O)n12
 : nt	-8	nt	108
CCN1CCOC(=O)C1CC(=O)Nc1cccc(C)c1 (stereo not given)
 : 51	9	31	98
Cc1ccc(-c2noc(-c3cnn4c(C)c(Cc5ccccc5C)c(C)nc34)n2)cc1
 : nt	-28	nt	183
NS(=O)(=O)c1ccc(NNC(=O)c2cccs2)cc1
 : 90	-16	74	103
CCSc1nnc2nc3c4ccccc4c4ccccc4c3nn12
 : 86	-6	75	99
O=C(Nc1noc2ccccc12)c1ccc(F)cc1
 : 110	-3&4	72	105&103
Cc1ccc(-n2c(=O)[nH]cc(C(=O)Nc3ccc(S(N)(=O)=O)cc3)c2=O)cc1
 : nt	4	nt	103

Quoted at random: 2 compounds from above.
Under each structure: Sa growth inh	HCMV NEC inh	Sa growth inh second temp	GIV Gai3 FP
Cc1ccc(-n2c(=O)[nH]cc(C(=O)Nc3ccc(S(N)(=O)=O)cc3)c2=O)cc1
 : nt	4	nt	103
Cc1csc2ncc(C(=O)N3CCCCCC3)c(=O)n12
 : nt	-8	nt	108

The results go on.
Under each structure: Sa growth inh	HCMV NEC inh	Sa growth inh second temp	GIV Gai3 FP
Cc1nn(C(C)C(=O)Nc2cccc(F)c2)c(=O)c2c1sc1ccccc12 (stereo not given)
 : 109	14	101	109
Cc1nc2c(c(C)nn2C(C)(C)C)c(C)c1CCC(=O)NCCCc1ccccc1
 : 130	nt	90	109
CCn1c(=O)cc(SCC(=O)NCc2ccc(OC)cc2OC)c2ccccc21
 : 104	-36	87	98
CCOC(=O)c1c(NC(=O)c2ccc(C)c([N+](=O)[O-])c2)sc(C(=O)Nc2ccc(OC)cc2)c1C
 : nt	-15	nt	103
O=c1c2c3c(sc2n(Cc2ccc(F)cc2Cl)c(=O)n1-c1ccc(Cl)cc1)CCC3
 : 99	20	107	99
CC(C)OCC1Cn2c(nc3c2c(=O)n(C)c(=O)n3C)O1 (stereo not given)
 : 102	-13	81	96
CN1CCN(CCN2C(=O)c3ccccc3Sc3cc(Cl)ccc3S2(=O)=O)CC1
 : 85	-2	88	99
C=CCn1c(C)cc(C(=O)CN(CC)CC(=O)NC2CCS(=O)(=O)C2)c1C (stereo not given)
 : 88	-14	96	nt
CCN(c1ccc(OC)cc1)c1ncnc2nc[nH]c12
 : 91	-29	84	103
N#Cc1cnn(-c2nc3ccccc3[nH]2)c1N
 : 92	-22	88	nt
CCN1CCN(C(=O)c2ccc3c(c2)N(Cc2ccccc2F)C(=O)c2ccccc2S3=O)CC1 (stereo not given)
 : 91	-32	85	102
Cc1sc(C(=O)O)c(-n2cccc2)c1C
 : 86	-11	65	98
CN(C)S(=O)(=O)N1CCC(Cc2ccccc2)CC1
 : 100	-14	101	nt
CCN1C(=O)CC(C)Nc2ccccc21 (stereo not given)
 : nt	6	nt	99

Records listed above that bear a hit mark in GIV Gai3 FP:
compound,Sa growth inh second temp,GIV Gai3 FP
Cc1nn(-c2ccccc2)c2sc(C(=O)NC(=S)NC3CCSC3=O)cc12 (stereo not given),94,85*

Screening results (PubChem BioAssay)
